SARS PLpro yeast: inhibitors of SARS-CoV papain-like protease in yeast; S. cerevisiae expressing SARS-CoV PLpro, growth rescue; control for the full effect not named in the record; Potency, µM (titrated, usually from 32.9 µM), for inactives: top-dose activity, positive = growth rescue; 330,000 compounds, 0.19% hits; AID 485353; active means well fitted rising curve with a large enough effect; inconclusive means small, poorly fitted or top-dose-only effect; inactive means no such curve, though single readings can be large or run the other way; note: 0% is about no effect; nearly all actives have a fitted effect of over 55% in size; growth read by luminescence after 48 h
StopGo reporter: lowers the luciferase signal of an FMDV 2A StopGo reporter; human cells with a luciferase reporter of 2A StopGo recoding; control for the full effect not named in the record; Potency, µM (series often up to 57.9 µM), for the others: at the highest dose signal change, negative = less light; 410,000 compounds, 1.2% hits; active = well fitted falling curve with a large enough effect; inconclusive = small, poorly fitted or top-dose-only effect; inactive = no such curve, though single readings can be large or run the other way; tested in HEK293T cells; note: % is set by controls: 0 for no effect and ±100 for the full control effect; nearly all actives have a fitted effect of over 45% in size; luciferase light after 4 h
RE007 growth inh: less growth of the S. pombe RE007 Vpr strain; 360,000 compounds, 0.21% hits; S. pombe RE007 Vpr strain, BacTiter-Glo ATP luminescence, 24 h; control for the full effect not named in the record; Potency, µM (doses to about 92.2 µM), for inactives: at the highest dose activity change, negative = less growth; AID 651644; active = well fitted falling curve with a large enough effect; inconclusive = small, poorly fitted or top-dose-only effect; inactive = no such curve, though single readings can be large or run the other way;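 note: % is set by controls: 0 for no effect and ±100 for the full control effect; nearly all actives have a fitted effect of over 50% in size; the assay follows cell death caused by Vpr and the record does not say whether a fall means rescue or toxicity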
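Fission yeast strain RE007, carrying one chromosomally integrated HIV-1 vpr copy, was seeded at OD 0.01 in PMG+AL medium with 23 nL pinned compound. After 24 h at 30 °C and 99% humidity, viability was read by BacTiter-Glo luminescence.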
* marks the source's active call; other numbers are inactive results; ? = inconclusive; & = joins results of further samples; [ ] = dose if it differs, or a comment. Potency is the fitted concentration of half-maximal effect. An excerpt; rates above refer to the full screens.

SMILES | SARS PLpro yeast | StopGo reporter | RE007 growth inh
O=C(CN1CCN(CC(=O)Nc2ccccc2F)CC1)Nc1ccc2c(c1)OCCO2 | 1% | 9% | 12%
COc1ccc(OCCCC(=O)OCC(=O)Nc2nnc(-c3ccccc3)o2)cc1 | 7% | -8% | -2%
C#CCN1C=C(C(=O)OCC)C(C)NS1(=O)=O (stereo not drawn) | 2% | -21% | 4%
Cc1cc(C)c(Cn2c(C(=O)O)c(C=O)c3ccccc32)c(C)c1 | -1% | -16% | 1%
CC(OC(=O)c1ccc(Cl)nc1)C(=O)Nc1ccc2c(c1)OCO2 (stereo not drawn) | -2% | 7% | 4%
Cc1ccc(CNC(=O)/C=C/C(=O)O)cc1 | -3% | 12% | -6%
CCOc1ccc(C(=O)NCC(=O)OCC(=O)Nc2nnc(-c3ccccc3)o2)cc1 | 0% | -10% | 19%
COC(=O)/C(=C\c1ccc(O)cc1)c1nc2ccccc2[nH]1 | -7% | 46%[activator] | -1%
CC(Oc1ccc(F)cc1)C(O)CCN(C)C (stereo not drawn) | 3% | -6% | 3%
CS(=O)(=O)Cc1ccc(C(=O)N2CCN(C(=O)c3cccs3)CC2)cc1 | 0% | -22% | -10%
Cc1ccc(OCc2ccc(C(=O)NCC3CCCO3)cc2)cc1C (stereo not drawn) | -4% | -11% | -13%
CC(=O)c1cccc(S(=O)(=O)NCCC(=O)NC2CCCCCC2)c1 | -1% | -1% | -10%
NS(=O)(=O)c1cccc(NC(=O)CSc2nnc(C3CC3)n2C2CC2)c1 | 9% | -3% | 4%
CC(C(=O)O)N(c1ccccc1Cl)S(C)(=O)=O (stereo not drawn) | 1% | 3% | 7%
CC(C)(C)OC(=O)C[C@@H]1C/C=C\C[C@H](CC(=O)N(CCO)Cc2ccccc2)C(=O)NC[C@H](c2ccccc2)OC1=O | 3% | -22% | 1%
O=C1C=C(c2ccc3c(c2)OCO3)C[C@@H](c2ccc(Cl)cc2)C1 | -19% | 10% | 4%
COC(=O)C1=C(c2ccc(F)cc2OCc2ccccc2)C[C@@H]2CC[C@H]1N2C(=O)NCCNC(C)=O | -4% | -13% | -3%
NC(=O)CN(N=Nc1cccc([N+](=O)[O-])c1)c1cccc([N+](=O)[O-])c1 | -6% | 0% | 1%
O=C(Nc1ccc2[nH]c(=O)[nH]c2c1)c1ccc([N+](=O)[O-])o1 | -1% | -8% | -9%
COc1ccc(NS(=O)(=O)c2ccc(O)c(NS(=O)(=O)c3ccc(NC(C)=O)cc3)c2)cc1 | -1% | 4% | 11%
COC(=O)c1sc(S(=O)(=O)N2CC(C)OC(C)C2)c(C(=O)OC)c1C (stereo not drawn) | 2% | -27% | -7%
CCOC(=O)c1cc(-c2ccccc2)n(Cc2cc(CC)no2)n1 | -4% | -11% | 4%
O=C(CSc1cccc(C(F)(F)F)c1)Nc1nnc(C2CC2)s1 | 0% | -11% | 6%
c1cncc(-c2cnc3ccccc3c2)c1 | -24% | 122%[activator] | 11%
COc1ccc(NC(=O)CSCC(=O)NCc2cccc(C(F)(F)F)c2)cc1 | -3% | -4% | 0%
O=C(O)C1CCN(c2ccc(Cl)nn2)CC1 | 0% | -13% | -5%
COc1cccc(CC(=O)OCC(=O)NC(C)c2ccc(F)cc2)c1 (stereo not drawn) | 0% | -14% | -16%
CCN(CC(=O)Nc1ccc(N2CCOCC2)cc1)C(=O)Cc1ccccc1 | -1% | -1% | -3%
COc1ccc(C(=O)O)cc1S(=O)(=O)Nc1cc(Cl)ccc1N1CCOCC1 | 3% | 3% | -4%
N#Cc1ccccc1S(=O)(=O)N1CCN(CC(=O)Nc2ccccc2C(=O)NC2CC2)CC1 | -10% | -22% | 3%
CCOC(=O)[C@@H]1[C@H]2COc3ccc(Br)cc3[C@@H]2N2C(=O)N(c3ccc(Cl)cc3)C(=O)[C@@]12C | 4% | -15% | 7%
CCS(=O)(=O)N1CCN=C1SCc1cccnc1 | 2% | 6% | 6%
CN(CC(=O)NC(=O)NCc1ccccc1)CC(=O)Nc1ccc(Cl)c(Cl)c1 | -3% | 0% | -9%
COc1cc(NC(=O)CNc2ccc(Cl)c(S(=O)(=O)N3CCOCC3)c2)cc(OC)c1 | -1% | ? | -5%
Cc1cc(OCC(=O)NNC(=O)c2cccc(F)c2)ccc1Cl | -1% | -5% | 0%
Nc1nnc(CCS(=O)(=O)c2ccc(Br)cc2)s1 | 1% | 6% | -4%
CN(CC(=O)Nc1ccccc1Br)C(=O)CN(C)C1CCCCC1 | -4% | -14% | -3%
CC1(NC(=O)CC(c2ccccc2)(c2ccccc2)c2ccccc2)CCN(CCCc2ccccc2)C1=O (stereo not drawn) | 8% | 0% | 15%
CN(CC(=O)Nc1cccc(F)c1)C(=O)c1ccc2c(c1)NC(=O)CS2 | -2% | 0% | 10%
NS(=O)(=O)c1ccc(NC(=O)CSc2n[nH]c(=O)n2C2CC2)cc1 | 1% | -13% | -1%
O=C(Cn1nc(C(=O)O)c2ccccc2c1=O)Nc1cc(S(=O)(=O)N2CCCCC2)ccc1Cl | -5% | -18% | 14%
CC(=O)Nc1ccc(NS(=O)(=O)c2ccccc2)cc1 | 1% | 17% | 7%
COc1ccc(NC(=O)Nc2cccc3c2O[C@H](CN(C)C(=O)NC2CCCCC2)[C@@H](C)CN([C@H](C)CO)C3=O)cc1 | 8% | 40%[activator] | 5%
CCN1C(=O)[C@@H]2[C@@H](c3ccc(SC4CCCCC4)cc3)N3CCCC[C@@]3(C(=O)OC)[C@@H]2C1=O | 3% | ? | -2%
COc1ccc2sc(-c3ccccc3OC)c(-c3ccc(OC)nc3)c2c1 | 0% | 12% | -10%
C[C@]12C(=O)N(c3ccccc3)C(=O)N1[C@H]1c3ccccc3OC[C@@H]1[C@H]2c1ccccc1 | 2% | -24% | -10%
COc1ccc(-c2cc(C(=O)N3CCN(c4ccccc4O)CC3)c3ccccc3n2)cc1 | -3% | 29% | -3%
COc1ccc(CN(CC2CCC(C(=O)O)CC2)C(=S)Nc2cc(C)ccc2C)cc1 (stereo not drawn) | 6% | 11% | 12%
COc1ccc(-c2cc3cc4c(cc3cn2)OCO4)cc1 | -6% | -20% | -24%
COc1ccc2c(=O)c(-c3ccc(C)cc3)c(-c3ccccc3)oc2c1 | -16% | 0% | -2%
COc1ccccc1NS(=O)(=O)c1cccc(C(=O)NNC(=O)c2ccc(=O)[nH]c2)c1 | 4% | 4% | 2%
CC(=O)Nc1ccc(OCC(=O)NC(C)c2ccc(F)cc2)cc1 (stereo not drawn) | 1% | -10% | 0%
O=C1c2cccnc2C(Nc2ccc(Br)cc2)N1Cc1cccs1 (stereo not drawn) | 1% | -13% | 20%
COc1ccc(C2=CC(=O)C[C@H](c3ccc(F)cc3)C2)c(F)c1F | -2% | -21% | 4%
O=C(CSc1ccccc1)OCC(=O)N1CCN(C(=O)c2ccco2)CC1 | -4% | -9% | 20%
O=C(NCc1cccs1)C(=O)NCC(c1ccco1)N1CCN(c2ccccc2)CC1 (stereo not drawn) | 0% | ? | 1%
COc1cc(OC)cc(C(=O)NCC(=O)N2CCN(Cc3ccccc3)CC2)c1 | -4% | -15% | -2%
CCOc1ccccc1C(=O)NCC(=O)NCc1ccc(S(=O)(=O)N2CCOCC2)cc1 | -5% | -2% | -12%
CC1=CC(=Cc2sc3ccccc3[n+]2C)C=C(C)O1 | -3% | ? | ?
CN(C)S(=O)(=O)n1cnc([C@@H]2[C@@H]3C(=O)OC[C@@H]3C[C@]23N=CN(Cc2ccccc2)C3=O)c1 | -1% | -8% | 5%

More entries.
SMILES | SARS PLpro yeast | StopGo reporter | RE007 growth inh
CC(Sc1ccc(S(=O)(=O)N2CCOCC2)cn1)C(=O)Nc1ccc(Cl)cc1Cl (stereo not drawn) | 3% | -25% | -11%
CC(=O)c1ccc(N2CCN(C(=O)c3ccc4[nH]c(C)c(C)c4c3)CC2)cc1 | -7% | ? | -1%
CCc1cccc(NC(=O)C2CCN(c3ncnc4sc(C)c(C)c34)CC2)c1 | -12% | ? | 5%
COc1ccc(C(=O)N2CCOCC2)cc1S(=O)(=O)N1CCCc2ccccc21 | 9% | -6% | -2%
Cc1ccc(C2=CC(=O)C[C@H](c3ccc4c(c3)OCO4)C2)cc1 | 2% | 0% | -18%
CN(c1ccccc1)S(=O)(=O)c1cccc(NC(=O)c2nn(C)c(=O)c3ccccc23)c1 | 3% | ? | 15%
COC(=O)c1cccc(Oc2cccc(C(F)(F)F)c2)n1 | 1% | -6% | 12%
N#Cc1ccsc1NC(=O)CSc1nncs1 | -2% | 15% | -16%
O=[N+]([O-])c1ccc(-[n+]2ccc3ccccc3c2)c([N+](=O)[O-])c1 | 6% | 28µM* | -16%
O=C(CSc1nc2nn(-c3ccccc3)c(=O)c-2c2n1CCCCC2)Nc1ccc(F)cc1F | -1% | -16% | -5%
Cc1ccc(-c2noc(CCC(=O)N3CCN(c4cc(C)ccc4C)CC3)n2)cc1 | -16% | -19% | 6%
Cc1ccc(NS(=O)(=O)c2ccc3c(c2)CCC(=O)N3)cc1 | -2% | 11%&15% | 0%
Cc1cc(C)cc(C(=O)NCC(=O)N2CCC(C(N)=O)CC2)c1 | -7% | -7% | 8%
CC(C#Cc1ccc2c(c1)COc1c3ccccc3nn1-2)OC(C)(C)C (stereo not drawn) | 3% | 0% | -3%
O=C(NCc1n[nH]c(=S)n1-c1ccc(F)cc1)c1ccc(S(=O)(=O)N2CCOCC2)cc1 | 6% | -1% | 3%
CC(C)(C)OC(=O)C[C@H]1C/C=C\C[C@@H](CC(=O)N[C@@H](CO)Cc2ccccc2)C(=O)N2CCC[C@H]2COC1=O | -3% | -22% | 10%
Cc1ccc(S(=O)(=O)N2[C@@H](c3cccc(Cl)c3)C(C(=O)O)=CC[C@H]2c2cccs2)cc1 | 3% | 24% | 5%
O=C(COC(=O)c1ccc(O)cc1)Nc1cc(C(F)(F)F)ccc1N1CCOCC1 | 0% | -23% | 2%
COc1cc(/C(C)=N/N2CCOCC2)cc(OC)c1OC | -3% | -18% | -4%
COc1cccc(NC(=O)c2c(F)cccc2F)c1 | -1% | 57%[activator] | -7%
Cc1ccc([C@@H]2CC=C(C(=O)O)[C@H](c3ccc(F)cc3)N2S(=O)(=O)c2ccc(C)cc2)cc1 | -5% | 6% | -5%
Cc1c(/C=N\NC(=O)c2cc3ccccc3o2)c2ccccc2n1C | -15% | 8% | 6%
COCCN(CC(=O)Nc1cccc(C)c1C)C(=O)Cc1ccsc1 | 4% | 1% | -8%
CN(c1ccccc1)S(=O)(=O)c1cc(C(=O)NCCCn2ccnc2)ccc1Cl | 1% | -16% | -21%
O=C(COC(=O)c1cc(S(=O)(=O)N2CCOCC2)ccc1Cl)NCc1ccc2c(c1)OCO2 | -6% | -6% | 0%
COc1ccc(C(=O)Nc2ccc(Cl)cc2F)cc1S(=O)(=O)N1CCCC1 | 1% | -22% | -2%
O=S1(=O)c2ccc(Br)cc2N2CCC[C@@H]2CN1Cc1ccccc1 | -18% | -8% | -8%
C[C@]12C(=O)N(c3cccc(F)c3)C(=O)N1[C@H]1c3ccccc3OC[C@@H]1[C@H]2c1ccccc1 | 8% | -20% | -11%
C[C@H](CO)N1C[C@H](C)[C@@H](CN(C)S(=O)(=O)c2ccccc2)Oc2ccc(NC(=O)Cn3cnnn3)cc2C1=O | -3% | -19% | -4%
O=C1CCc2cc(S(=O)(=O)Nc3ccc(F)cc3)ccc2N1 | 2% | 4% | 3%
COc1ccc([C@H]2CC(=O)C=C(c3ccc(Cl)c(C(F)(F)F)c3)C2)cc1OC | 6% | ? | -17%
COc1ccccc1S(=O)(=O)N1CCN(S(=O)(=O)c2cccs2)CC1 | 6% | -3% | -15%
NC(=O)c1ccc(NC(=O)CSc2nc3ccccc3c(=O)n2CCCN2CCOCC2)cc1 | 1% | ? | -15%
Fc1cccc(-c2nnn3c2nc(Cl)c2ccccc23)c1 | -5% | ? | -2%

Some of these compounds in order of heavy-atom count, lowest first:
SMILES | SARS PLpro yeast | StopGo reporter | RE007 growth inh
O=C1CCc2cc(S(=O)(=O)Nc3ccc(F)cc3)ccc2N1 | 2% | 4% | 3%
Cc1c(/C=N\NC(=O)c2cc3ccccc3o2)c2ccccc2n1C | -15% | 8% | 6%
COc1ccc(C(=O)Nc2ccc(Cl)cc2F)cc1S(=O)(=O)N1CCCC1 | 1% | -22% | -2%
CN(c1ccccc1)S(=O)(=O)c1cc(C(=O)NCCCn2ccnc2)ccc1Cl | 1% | -16% | -21%
C[C@]12C(=O)N(c3cccc(F)c3)C(=O)N1[C@H]1c3ccccc3OC[C@@H]1[C@H]2c1ccccc1 | 8% | -20% | -11%
Cc1ccc([C@@H]2CC=C(C(=O)O)[C@H](c3ccc(F)cc3)N2S(=O)(=O)c2ccc(C)cc2)cc1 | -5% | 6% | -5%
C[C@H](CO)N1C[C@H](C)[C@@H](CN(C)S(=O)(=O)c2ccccc2)Oc2ccc(NC(=O)Cn3cnnn3)cc2C1=O | -3% | -19% | -4%

Screens as filed in PubChem.
